VACV Venus inh: inhibitors of vaccinia virus (Venus reporter); Potency, µM (series often up to 36.5 µM), without a hit: at the top dose activity change, negative = inhibition, actives largely listed as inhibitors; 0.46% of 330,000 active; Vaccinia virus Venus reporter expression, fluorescence; AID 720580; active means well fitted inhibition curve with a large enough effect; inconclusive means small, poorly fitted or top-dose-only effect; inactive means no such curve, though single readings can be large or run the other way; tested in A549 cells; also: nearly all actives have a fitted effect of over 30% in size; inactives centre near -10
Vaccinia mCherry: vaccinia inhibition (mCherry reporter); Vaccinia virus mCherry reporter infection, fluorescence; about a quarter of the inactives have no number; Potency, µM (titrated, usually from 36.5 µM), for the others: at the top dose activity change, negative = inhibition, usual class: inhibitors; 0.63% of 310,000 active; AID 720579; active = well fitted inhibition curve with a large enough effect; inconclusive = small, poorly fitted or top-dose-only effect; inactive = no such curve, though single readings can be large or run the other way; tested in A549 cells; also: nearly all actives have a fitted effect of over 35% in size; inactives centre near -10
Active calls of the source: *; i = inactive; ? = inconclusive; nt = no result given; & = joins results of further samples; [ ] = remark or other dose. % is scaled to controls: 0 for no effect and ±100 for the full control effect; potency is read from the fitted curve at half-maximal effect.

SMILES | VACV Venus inh | Vaccinia mCherry
CC(=O)OC1CC[C@@]2(C)C3CC[C@]4(C)C(=O)CCC4C3CC[C@H]2C1 (stereo partly specified) | -29% | i
CC1(C)OC2C[C@](O)(C(N)=O)C[C@H](O)[C@H]2O1 (stereo partly specified) | -8% | -9%
COc1ccccc1NC(=O)c1sc2nc(N3CCOCC3)c3c(c2c1N)CCCC3 | -6% | -7%
COc1cc2c(cc1OC)C(c1cc(Br)ccc1O)N(C(C)=O)CC2 (stereo unspecified) | -7% | -15%
O=C(C1=NN[C@@H]2C(=O)N(c3ccccc3C(F)(F)F)C(=O)[C@H]12)C(c1ccccc1)c1ccccc1 | 2% | -12%
C#CCOCCOCCOCCNc1nc(N2CCN(C(=O)Cn3cc(CCCCN)nn3)CC2)nc(N2CCN(C(=O)[C@H]([C@@H](C)CC)n3cc(CCCCN)nn3)CC2)n1 | -10% | i
NS(=O)(=O)c1ccc(NC(=O)COC(=O)c2cn(-c3ccccc3)nc2-c2ccccc2)cc1 | -28% | -1%
COc1ccc(C2Oc3cc(OC)cc(OC)c3CC2O)cc1 (stereo unspecified) | -4% | i
COc1cccc(NC(=O)Cn2c(=O)n(Cc3ccc4c(c3)OCO4)c(=O)c3oc4ccccc4c32)c1 | -5% | -4%
COc1ccc(/C=C/C(=O)N2CCN(c3ccccc3)CC2)cc1S(=O)(=O)N1CCOCC1 | -22% | -24%
CC1CCN(C(=O)Cn2c(=O)n(-c3ccc(Cl)cc3)c(=O)c3c4c(sc32)CCC4)CC1 | 1% | -15%
CC(NC(=O)c1ccccc1F)c1nnc(SCC(=O)NC2CCCCC2)n1C (stereo unspecified) | -1% | -1%
Cc1ccc(OC(C)C(=O)N2CCN(CCc3ccccn3)CC2)cc1C (stereo unspecified) | -7% | -12%
Cc1ccc(C)c(Cn2nnc3c(=O)[nH]c(C4CCN(S(=O)(=O)c5ccc(S(=O)(=O)N(C)C)cc5)CC4)nc32)c1 | -4% | -10%
CCCn1nnc(NC(=S)NC(=O)/C=C/c2ccco2)n1 | -14%[7.34 µM] | -17%[7.34 µM]
CCCOc1cccc(C(=O)Nc2ccc(-c3cc4ccccc4oc3=O)c(C)c2)c1 | ? | -11%
COc1ccccc1NC(=S)N(Cc1ccccc1)Cc1cccnc1 | -12% | i
Cc1onc(-c2c(Cl)cccc2Cl)c1C(=O)N1CCSCC1 | 12% | 13%
CC(C)CCCn1c(O)c(/C=C2/C=CC=N2)c(=O)[nH]c1=O | 50%[activator] | 16%
Cc1ccc(S(=O)(=O)N2CC(=O)Nc3ccccc32)cc1 | 0% | -15%
CCOC(=O)N1CCN(C(=O)C2CCC(=O)N(Cc3cccc(C(F)(F)F)c3)C2)CC1 (stereo unspecified) | -19% | -6%
CCOc1cc(C(=O)Nc2ccc(-c3nc4ccccc4s3)cc2Cl)cc(OCC)c1OCC | -13% | -15%
CC1CN(C(=O)N[C@@H](Cc2ccccc2)C(=O)O)CC(C)O1 (stereo partly specified) | -7% | -10%
COc1ccccc1CNC(=O)Cn1cc(Br)ccc1=O | 12% | -21%
Cc1ccc(C(=O)C[n+]2ccccc2)cc1 | -5% | -4%
(cont.)
SMILES | VACV Venus inh | Vaccinia mCherry
CN(C)CCOC1c2ccccc2C=Cc2ccccc21 | -11% | -10%
COc1cc(Cl)c(C)cc1NC(=O)Cc1cccs1 | -16% | -17%
O=C(c1ccco1)N1N=C(c2ccccc2O)CC1c1cccs1 (stereo unspecified) | -20% | -15%
Cc1ccc(C)c(NC(=O)c2nnn(Cc3ccc(F)cc3Cl)c2N)c1 | -8% | -16%
Cc1cc(C)cc(-n2c(C)cc(/C=C3\C(=O)NC(=O)N(C)C3=O)c2C)c1 | -14% | -15%
COc1ccc(Cn2c(=O)oc3ccc(C)cc32)cc1 | -5% | -3%
Oc1cccc2c(CC(O)c3c[nH]c4ccccc34)ccnc12 (stereo unspecified) | ? | i
CCOC(=O)c1cc(OC(=O)c2cccc(C)c2)n(-c2ccccc2)n1 | 10% | 6%
CC(C)(C)C(=O)CCN1C(=O)C2(OCCO2)c2ccccc21 | 1% | nt
O=C(N/N=C/c1cc([N+](=O)[O-])ccc1O)C1CCCCC1 | -24% | -15%
OCCNC(=S)Nc1cc(Cl)cc(Cl)c1 | -11% | -16%
Nc1cc(C(=O)OCC(=O)N2CCN(C(=O)COC(=O)c3ccc(Cl)c(N)c3)CC2)ccc1Cl | -19% | i
O=C(CN1C(=O)C(=O)N(C2CCCC2)C1=O)NCCc1ccc(F)cc1 | 3% | -15%
COc1ccc(C(O)c2ncc(-c3ccccc3C)[nH]2)cc1 (stereo unspecified) | -2% | i
COC(=O)[C@@]1(Cc2ccc(F)cc2)[C@H]2c3cc(C(=O)N(C)C)n(C[C@H](O)CO)c3C[C@H]2CN1C(=O)c1ccccc1 | -6% | i
O=C(NCc1ccncc1)C(=O)N/N=C/c1ccc(OCc2ccccc2)cc1 | -14% | -7%
NC(=O)C1(N2CCCCC2)CCN(C2CC(=O)N(Cc3cccs3)C2=O)CC1 (stereo unspecified) | -18% | i
CCc1ccc(C(N)=S)cc1 | -6% | -22%
COc1ccc(-c2noc(C3CC(=O)N(c4cc(C)cc(C)c4)C3)n2)cc1 (stereo unspecified) | 0% | 4%
CC(C)C[C@@H](CN1C(N)=NC[C@@H]1C)NC(=O)CC12CC3CC(CC(C3)C1)C2 | 0% | i
Cc1ccc(-n2cnc3c(=O)[nH]cnc32)cc1 | 9% | -12%
Cc1ccc(C)c(S(=O)(=O)N2CCCOC2CNC(=O)C(=O)NC2CCCC2)c1 (stereo unspecified) | -20% | -11%
CCn1c(=O)c2sccc2n2c(CCC(=O)Nc3ccc(C(C)C)cc3)nnc12 | 2% | 6%
Cc1ccnn1CCC(=O)N1CCCC(Nc2ccc(C(C)C)cc2)C1 (stereo unspecified) | -11% | -7%
CCN(CC)C(=O)C1CCN(Cc2cccc(OCc3ccccc3)c2)CC1 | -9% | i

Molecules above that have a furan ring, fused or not, in the order listed:
SMILES | VACV Venus inh | Vaccinia mCherry
COc1cccc(NC(=O)Cn2c(=O)n(Cc3ccc4c(c3)OCO4)c(=O)c3oc4ccccc4c32)c1 | -5% | -4%
CCCn1nnc(NC(=S)NC(=O)/C=C/c2ccco2)n1 | -14%[7.34 µM] | -17%[7.34 µM]
O=C(c1ccco1)N1N=C(c2ccccc2O)CC1c1cccs1 (stereo unspecified) | -20% | -15%

Next section
SMILES | VACV Venus inh | Vaccinia mCherry
CC1=CC(=O)OC2CC3OC4C[C@@H](C)C5OC6CC7O[C@]8(C)C/C=C\C9OC%10CC%11OC(CC(C)CO)CC(O)[C@]%11(C)OC%10CC9OC8C[C@]7(C)O[C@]6(C)CCC5OC4C[C@]3(C)OC12 (stereo partly specified) | -8% | i
O=C(Cn1cc(COc2ccc(Br)cc2)nn1)c1ccc(O)cc1 | -23% | i
Cc1ccc(CCNC(=O)c2sc3ncccc3c2-n2c(C)ccc2C)cc1 | -17% | -17%
O=C(CSc1nc2ccccc2[nH]1)c1c[nH]c2ccccc12 | -23% | -1%
CCOc1ccc(-n2c(=O)c3c(C)c(C)sc3n(Cc3c(F)cccc3Cl)c2=O)cc1 | -7% | -11%
COc1ccc(OCCC(=O)OCC(=O)NC(=O)NC2CCCCC2)cc1 | 0% | -11%
O=C(O)c1ccc(NC(C(=O)c2ccccc2)c2ccccc2)cc1 (stereo unspecified) | -21% | -1%
Cc1ccc(NC(=O)c2cc3c(s2)CCCC3)cc1 | -13% | 4%
C/C(=N\Nc1nc(Cl)c(Cl)cc1Cl)c1ccc(S(=O)(=O)NCc2ccco2)cc1 | -30% | ?
CCN1C(=O)[C@H]2[C@@H](c3ccc(-c4ccc(OC)cc4)cc3)N[C@@](Cc3ccccc3)(C(=O)OC)[C@H]2C1=O | -28% | -1%
O=C(Nc1ccc(Cl)cc1)Nc1cccnc1 | -4% | -13%
COC(=O)c1ccc(/C=C/c2ccc3cccc(OC)c3n2)cc1 | -9% | i
CN1C[C@@H]2[C@@H]3C(=O)N(C)C(=O)[C@@H]3[C@](C)(C1=O)N2C(=O)c1ccc(Cl)c(Cl)c1 | 1% | -21%
Cc1cc(N)n(-c2cc(C)c3ccccc3n2)n1 | -10% | ?
O=C1NC2=C(C(=O)c3ccccc32)C(c2ccccc2)N1 (stereo unspecified) | -14% | -2%
COCC1CCN(Cc2cn(-c3ccccc3F)nc2-c2cc(C)sc2C)CC1 | -6% | -9%
O=C(O)c1ccc(-c2sc(Nc3ccccc3)n[n+]2-c2ccc(F)cc2)cc1 | -6% | i
O=C(CNC(=O)c1ccc(S(=O)(=O)N2CCCC2)cc1)N/N=C/c1ccc(Cl)cc1 | -6% | -15%
CCCCCc1ccc(OCCC[n+]2ccccc2)c(CCCCC)c1 | 10µM* | 10µM*
Nc1ccn(C(C=O)CC(C=O)CO)c(=O)n1 (stereo unspecified) | -6% | i
O=C(NCc1ccncc1)C1Cc2c(-c3ccccc3Oc3ccccc3)ccnc2O1 (stereo unspecified) | ? | -19%
COc1ccccc1NC(=O)CNc1ccc(F)c(Cl)c1 | -4% | -1%
CC12CCC(=O)N1C(C(=O)Nc1cc(C(F)(F)F)ccc1N1CCOCC1)CS2 (stereo unspecified) | -5% | -12%
N#Cc1ccccc1NC(=O)CSc1nccn1CCc1ccccc1 | -2% | i
Cc1ccc2cc(CN(CCCO)S(=O)(=O)c3ccccc3F)c(=O)[nH]c2c1C | -21% | -20%

Looked up by compound from the list above (6):
SMILES | VACV Venus inh | Vaccinia mCherry
NS(=O)(=O)c1ccc(NC(=O)COC(=O)c2cn(-c3ccccc3)nc2-c2ccccc2)cc1 | -28% | -1%
CCCn1nnc(NC(=S)NC(=O)/C=C/c2ccco2)n1 | -14%[7.34 µM] | -17%[7.34 µM]
CCCOc1cccc(C(=O)Nc2ccc(-c3cc4ccccc4oc3=O)c(C)c2)c1 | ? | -11%
COc1cc2c(cc1OC)C(c1cc(Br)ccc1O)N(C(C)=O)CC2 (stereo unspecified) | -7% | -15%
COc1ccc(/C=C/C(=O)N2CCN(c3ccccc3)CC2)cc1S(=O)(=O)N1CCOCC1 | -22% | -24%
Cc1onc(-c2c(Cl)cccc2Cl)c1C(=O)N1CCSCC1 | 12% | 13%

Remaining list, next part
SMILES | VACV Venus inh | Vaccinia mCherry
CCOc1ccc(NC(=O)CSc2ncc(-c3ccc(F)cc3)n2Cc2ccco2)cc1 | -10% | -25%
COC(=O)C(/C=N/O)NC(=O)c1ccccc1 (stereo unspecified) | 7% | -7%
CCOc1cc(N2CCOCC2)c(OCC)cc1NC(=O)COC(=O)CCn1c(C)csc1=O | -21% | i
C[C@@H]1CN([C@@H](C)CO)C(=O)c2cccc(NC(=O)C3CCCCC3)c2O[C@@H]1CN(C)Cc1ccc(Cl)c(Cl)c1 | -22% | -13%
CN(C)S(=O)(=O)c1ccc(N2CCCC2)c(C(=O)NCc2ccccc2)c1 | -2% | nt
COc1ccc(S(=O)(=O)N2CCOC2CNC(=O)C(=O)NCCc2c[nH]c3ccccc23)cc1C (stereo unspecified) | ? | ?
CCCCCCCCN1C(=O)[C@H](CC(=O)NCc2cccs2)C[C@@]2(C(=O)OC)CCCCC=C12 | 1% | -10%
COc1ccc(CNC(=O)CN(c2ccccc2)S(=O)(=O)c2ccccc2[N+](=O)[O-])cc1 | -16% | -29%
Cc1n[nH]c2ccc(Br)cc2c1=O | -11% | 2%
O=C(NC1CCCC1)c1ccccc1-c1ccccc1 | -2% | -12%
CN(CC(=O)O)S(=O)(=O)c1ccc2c(c1)n(C)c(=O)c(=O)n2C | -15% | -6%
CCC(C)NCCC(=O)Nc1ccc(Cl)c(S(=O)(=O)Nc2ccc(Cl)cc2)c1 (stereo unspecified) | -23% | -25%
CC1(C)OC(=O)C(=CNc2ccccn2)C(=O)O1 | -3% | -10%
CCOC(=O)c1c(NC(C)=O)c2c3c(sc2n1Cc1ccc(Cl)cc1)CCCC3 | -11% | -11%
CC(=O)C1=C(O)C(=O)N(c2ccc(S(N)(=O)=O)cc2)C1c1ccc([N+](=O)[O-])cc1 (stereo unspecified) | ? | -35%[1.46 µM]
COCCCNC(=S)Nc1ccc2nc3n(c(=O)c2c1)CCCCC3 | -17% | -14%
Cc1ccc(Nc2sc(C(=O)c3ccccc3)c(N)c2C(=O)NC(C)C)cc1 | 0% | -5%
O=C(CCN1CCOCC1)c1ccc2c(c1)OCCO2 | -28% | nt
CCOC(=O)/C=C/C(=O)Nc1ccc(S(=O)(=O)Nc2cc(C)on2)cc1 | 8% | -10%
CC1(C)Cc2c(sc(NC(=O)COc3ccccc3)c2C#N)C(C)(C)N1 | -24% | -10%
CCOC(=O)C1=C(C)NC2=C(C(=O)c3ccccc32)C1c1ccc([N+](=O)[O-])o1 (stereo unspecified) | -21% | -12%
COc1cc(OC)c(NC(=O)c2c3c(nc4ccccc24)C(=O)N(C2CCCCC2)C3)cc1Cl | ? | ?
O=C(NCc1cccc(F)c1)c1ccc(CS(=O)c2ccccc2Cl)o1 (stereo unspecified) | 3% | -11%
O=C(C(Cl)c1ccccc1)N1CCOCC1 (stereo unspecified) | -4% | -18%
Cc1ccc(NC(=O)C2CCN(S(=O)(=O)c3cccs3)CC2)cc1 | -23%&-12% | -14%
CCn1c(SCC(=O)c2ccccc2)nnc1-c1cccnc1 | 2% | i
CC(C)c1ccc(N2C(=O)NC(=O)/C(=C\c3cnc(-c4ccccc4)nc3)C2=O)cc1 | -11% | -19%
CCOC(=O)c1c(C)[nH]c(C)c1S(=O)(=O)N1CCCC(C(=O)Nc2cc(C)ccc2C)C1 (stereo unspecified) | 4% | 2%

Compound activity (PubChem BioAssay)

This is a random part of the collection; overall some 0.87% were active at least once.
